Source: PubChem BioAssay (National Center for Advancing Translational Sciences (NCATS))
PI4K2A block: PI4K2A (human) kinase inhibition | activity change, negative = inhibition, % at 76.9 µM | purified PI4K2A, ADP-Glo luminescence, 1 h; active compounds read low | hit rate 0.13% among 420,000 | AID 1346378; in the data active = activity change below about -50%; inconclusive = mostly about -30% to -49%;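 note: -100% = wells without enzyme as full effect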
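ADP-Glo luminescence measured ADP generated by PI4K2A enzyme (4 ug/mL before mixing) with 1.2 mM PI substrate (pre-mix) and 300 microM ATP (pre-mix). Tris pH7.5 buffer with MgCl2, Triton X-100; 1 h reaction at ambient temperature.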
Pin1 inhibitor: inhibitors of human Pin1 | Q13526 | Potency, µM (highest dose often 115 µM), inactives show at the top dose activity, negative = inhibition, hits mostly inhibitors | Pin1 FP peptide displacement, HiFluor488, 10 min | hit rate 0.009% among 390,000; active = well fitted inhibition curve with a large enough effect in the polarisation, with a control signal flat, not every such curve was filed as active; inconclusive = small, poorly fitted or top-dose-only effect, or effect the other way, or a change in a side signal; inactive = no such curve, though single readings can be large or run the other way; the % refers to the polarisation; note: potency is the fitted concentration of half-maximal effect; % is set by controls: 0 for no effect and ±100 for the full control effect
Target sequence (Q13526 whole entry, looked up): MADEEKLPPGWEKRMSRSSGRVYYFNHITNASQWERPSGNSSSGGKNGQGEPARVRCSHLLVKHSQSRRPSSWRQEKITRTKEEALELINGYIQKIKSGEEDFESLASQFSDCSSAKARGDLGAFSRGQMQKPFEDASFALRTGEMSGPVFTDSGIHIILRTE
Tb PGK inh: inhibitors of T. brucei phosphoglycerate kinase. P07378. PGK/GAPDH coupled, Kinase-Glo luminescence, 60 min. Potency, µM (top dose mostly 57.5 µM), without a hit: at the top dose activity change, negative = inhibition, hits mostly inhibitors. hit rate 0.043% among 380,000. AID 602233; note: potency is the fitted concentration of half-maximal effect; % is set by controls: 0 for no effect and ±100 for the full control effect; nearly all actives have a fitted effect of over 60% in size
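Luminescent ATP detection (Kinase-Glo Plus) follows a 60-minute room-temperature incubation, with wells lacking PGK as controls. Buffer: 100 mM TEA (pH 7.6), 5 mM MgCl2, 0.01% Tween-20. Coupling enzyme GAPDH (100 nM final) supplies unstable 1,3-BPG in-well.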
ERG Ets-DNA blk: inhibitors of human ERG Ets domain-DNA interaction | P11308 | Potency, µM (doses to about 76.9 µM), inactives show at the highest dose FP activity, negative = inhibition, hits mostly inhibitors | hit rate 0.028% among 370,000 | fluorescence polarization, His-ERG Ets domain / labelled DNA; active = well fitted inhibition curve with a large enough effect in the polarisation, with a control signal flat; inconclusive = small, poorly fitted or top-dose-only effect, or effect the other way, or a change in a side signal; inactive = no such curve, though single readings can be large or run the other way; the % refers to the polarisation;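 note: polarization taken with two DNA probes labelled with fluorescein and Texas red; potency is the fitted concentration of half-maximal effect; % of control where 0% means no effect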
Target sequence (P11308 whole entry, looked up, the tested form may be a part): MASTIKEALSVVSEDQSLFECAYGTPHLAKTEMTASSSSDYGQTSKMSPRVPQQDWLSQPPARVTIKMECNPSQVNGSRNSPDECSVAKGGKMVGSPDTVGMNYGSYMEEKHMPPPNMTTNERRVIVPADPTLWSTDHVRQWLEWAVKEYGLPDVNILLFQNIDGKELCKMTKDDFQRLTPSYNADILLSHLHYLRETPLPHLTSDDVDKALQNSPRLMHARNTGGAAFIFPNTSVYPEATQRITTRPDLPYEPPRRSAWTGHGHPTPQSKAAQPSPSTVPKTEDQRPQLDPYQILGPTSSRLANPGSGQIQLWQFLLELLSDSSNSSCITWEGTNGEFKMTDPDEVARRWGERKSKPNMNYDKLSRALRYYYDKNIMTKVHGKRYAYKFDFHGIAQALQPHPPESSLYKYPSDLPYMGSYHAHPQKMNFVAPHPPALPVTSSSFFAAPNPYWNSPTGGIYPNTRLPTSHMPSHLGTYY
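His-tagged ERG Ets domain (1 uM in the protein solution; 300mM KCl, 50mM Tris-HCl, 1mM EDTA, 1mM DTT, pH 7.5) received compound, then a probe mix of 5 nM fluorescein-DNA and 100nM Texas-615-DNA. Fluorescence polarization was read for both dyes.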
GLS inhibitor: blocks human kidney-isoform glutaminase activity; O94925; GLS enzymatic activity, qHTS titration; Potency, µM (doses to about 45.5 µM), without a hit: top-dose activity change, negative = inhibition, hits mostly inhibitors; hit rate 0.21% among 410,000; AID 624170; note: potency is the fitted concentration of half-maximal effect; % is set by controls: 0 for no effect and ±100 for the full control effect
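Human kidney-isoform GLS in 45 mM KH2PO4 pH 8.2, 0.02% Tween-20, with compound, started with 1mM L-Glutamine (added stock). Glutamate oxidase/HRP/Amplex red coupled fluorescence read at start and after 30 min at RT.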
* marks the source's active call; other numbers are inactive results; i = inactive; ? = inconclusive; / = no result given; & = joins results of further samples; [ ] = remark or other dose. Unless noted, calls come from the whole dose curve; as a rule, active = well fitted curve in the direction sought with a large enough effect; inconclusive = small, poorly fitted or top-dose-only effect, or another doubt; inactive = no such curve, though single readings can be large; an effect the other way counts as inactive or inconclusive. This is a subset (hit frequency here may not be typical).

Pin1 inhibitor,GLS inhibitor,Tb PGK inh,ERG Ets-DNA blk,Compound,PI4K2A block
-9%,-1%,-2%,5%,COc1ccc(OC)c(-n2c(-c3cc(-c4ccccc4)n[nH]3)n[nH]c2=S)c1,-3
-5%,10%,-7%[11.5 µM],/,CN(C)CCCNc1cc(Cl)c(S(=O)(=O)N2CCCCC2)cc1C(=O)O,-6
-1%,-1%,3%,4%,Cn1ccnc1SCC(=O)n1c2c(c3ccccc31)CCCC2,8
-6%&-4%,-15%,2%,-4%,N#CC1=C2SCN(c3ccccc3)CN2C(=O)CC1c1ccccc1Cl (stereo unspecified),-3
-3%,4%,10%,4%,COc1ccccc1CNC(=O)C(CC(C)C)N1Cc2ccccc2C1=O (stereo unspecified),-3
-5%,3%,-13%,-24%,CCCCCCCC(=O)N/N=C(/C)c1c(O)cc(C)oc1=O,4
23%,1%,-6%,-4%,CN1C(=S)N(c2cccnc2)C(=O)/C1=C\c1ccc(C(C)(C)C)cc1,2
?,2%,i,11%,COc1ccc(CCNC(=O)c2cc(S(=O)(=O)N(C)c3ccccc3)ccc2Cl)cc1,-3
0%,7%,i,-11%,COc1ccc(/C=C/C(=O)NC(=S)N2CCCC(C(N)=O)C2)cc1 (stereo unspecified),-8
-11%,8%,-7%,8%,O=[N+]([O-])c1cc(C(F)(F)F)ccc1NC1CCN(Cc2ccccc2)C1 (stereo unspecified),-3
?,57%[activator],?,1%,CC(C)(C)c1ccc(C(=O)N/C(=C\c2cccc([N+](=O)[O-])c2)C(=O)Nc2cccc(C(=O)O)c2)cc1,-5
-2%,-13%,-6%,9%,Cc1cc(C)cc(N2C(=O)C3CCCN3C2=S)c1 (stereo unspecified),-2
2%,24%,3%,-7%,COc1ccc(OC)c(Nc2ccc(Nc3cc(OC)ccc3OC)nn2)c1,-2
2%,0%,3%,-3%,Cc1ccc(-n2c(N)c(C(N)=O)sc2=S)cc1,-2
-9%,0%,3%,-3%,CC(=O)c1cc(C#N)c(N2CCCCC2)nc1C,2
5%,11%,5%,-8%,CCOCCCn1c(=S)[nH]c2cc(C(=O)NCc3ccc(F)cc3)ccc2c1=O,3
13%,-3%,i,8%,COc1ccc(N(C(C)=O)S(=O)(=O)c2cccs2)cc1,9
5%,-18%,-2%,-30%,CN(CC(=O)NCc1ccccc1Cl)S(=O)(=O)c1cccs1,0
?,-3%,-9%,/,O=c1c2ccccc2nc2n1CC/C2=C/N1CCN(c2cccc(C(F)(F)F)c2)CC1,-1
-3%,6%,-9%,/,N#C/C(=C/c1ccc(-c2ccc(C(=O)O)c(Cl)c2)o1)C(=O)NCC1CCCO1 (stereo unspecified),-3
/,-13%&-5%,/,/,Nc1ccn([C@@H]2CS[C@H](CO)O2)c(=O)n1,/
66%[activator],10%,i,/,Cc1cccc(C(=O)Oc2ccc(/C=N/NC(=O)c3ccccc3O)cc2)c1,3
-2%,0%,-11%,2%,CC(C)OCCCNC(=O)COCC(=O)Nc1ccc(OCCc2ccccc2)cc1,-2
-4%,1%,i,1%,O=C(Nc1ccc2oc(=O)ccc2c1)c1cccnc1Cl,13
-7%,6%,-3%,-1%,Cc1ccc(Nc2sc(C(=O)c3ccccc3)c(N)c2C(=O)NC(C)C)cc1,-1

(list continues)
Pin1 inhibitor,GLS inhibitor,Tb PGK inh,ERG Ets-DNA blk,Compound,PI4K2A block
16%,1%,15%,-8%,Cc1cccc(OCC(=O)Nc2ccc(NC(=O)c3ccccc3)cc2)c1,2
-1%,0%,2%,14%,Cc1cccc(N2C(=O)C3CCCN3C2=S)c1 (stereo unspecified),-7
-18%,0%,1%,4%,C[C@H](NC(=O)c1nc[nH]c1C(=O)NCC(=O)OC(C)(C)C)C(=O)OCc1ccccc1,-5
-4%,-4%&0%&-5%,3%,-13%,CC(C)(C)c1ccc(C(O)CCCN2CCC(C(O)(c3ccccc3)c3ccccc3)CC2)cc1 (stereo unspecified),-1&-5&0
3%,1%,25%,-3%,COc1cccc(-c2nnc(SCC(=O)OC(C)C)n2N)c1,1
-1%,3%,-2%,-13%,N#Cc1cnn2cc(-c3ncc(C(F)(F)F)cc3Cl)cnc12,3
-4%,0%,-2%,11%,O=C(C1CCCN(Cc2ccccc2[N+](=O)[O-])C1)N1CCCCC1 (stereo unspecified),6
-2%,-8%,-7%,0%,COc1cccc(OC)c1OCCOCCn1cnc2ccccc2c1=O,1
-4%,-5%,9%,-6%,Cc1c(N=Cc2cccs2)c(=O)n(-c2ccccc2)n1C,-4
-1%,-4%,-6%,-6%,Cc1ccc(C)c(C(=O)CSc2n[nH]c(C)n2)c1,10
-11%,-6%,0%,4%,CCCOc1ccc(CN2C(=O)C(=O)c3cccc(C)c32)cc1,35
34%[activator],3%,-4%,13%,CCN(CC)c1ccc(C(=O)OCc2cc(=O)oc3cc(O)ccc23)cc1,-4
3%,1%,10%,1%,COc1ccc(-c2nc3ccccc3c(=O)n2NC(=S)N(C)C)cc1,4
?,202%[activator],-25%,4%,Cc1ccc(NC(=O)c2noc3c2CCC3)cc1C,0
-3%,1%,i,-1%,CC1=C(C(=O)Nc2cccnc2)C(c2ccccc2)n2nc(-c3ccc(O)cc3)nc2N1 (stereo unspecified),-6
0%,5%,-5%,-14%,COc1ccc(C2NC(c3ccc(OC)c(OC)c3OC)C(C)C(=O)C2C)c(OC)c1OC (stereo unspecified),-4
?,-17%,-4%,11%,CCOc1ccc(-n2ccc(=O)c(C(=O)Nc3ccc(S(=O)(=O)Nc4nccs4)cc3)n2)cc1,-6
-12%,3%,-3%,-13%,CC(C)(C)NC(=O)CSc1nc(O)cc(=O)[nH]1,-2
2%,4%,6%,6%,COc1ccc(/C=N/NC(=O)c2ccc(NS(=O)(=O)c3cccs3)cc2)cc1,0
-5%,8%,i,5%,COc1cccc(CC2(CO)CCCN(Cc3cc4ccccc4[nH]3)C2)c1 (stereo unspecified),-1
3%,10%,12%,-1%,Cc1cc(C(=O)O)c(CSc2ncn[nH]2)o1,3
-12%,-1%,-4%,11%,Cn1c(-c2ccc(Br)cc2)cnc1NCc1ccc(C#N)cc1,-4
-9%,0%,8%,1%,O=C(C1CCCN(Cc2cccc(F)c2)C1)N1CCCCC1 (stereo unspecified),9
2%,8%,6%,-9%,COc1ccc(C(=O)CSc2n[nH]c(N)n2)cc1,-1
29%,155%[activator],0%,7%,CCCCn1c(N)c(N(CCC(C)C)C(=O)c2cc(-c3ccco3)nc3ccccc23)c(=O)[nH]c1=O,-7

(next part)
Pin1 inhibitor,GLS inhibitor,Tb PGK inh,ERG Ets-DNA blk,Compound,PI4K2A block
0%,5%,-2%,5%,Cc1ccc(CNc2ccc(Cl)cc2[N+](=O)[O-])cc1,-1
2%,9%,1%,-1%,N#Cc1nc(-c2cccs2)oc1NCc1ccccc1,-1
-1%,-6%,i,-1%,COc1cc2c3c(c1)C(C)=CC(C)(C)N3C(=O)C2=O,12
3%,2%,-3%,-9%,CCOC(=O)c1ccc(CSc2ncn[nH]2)o1,2
17%,-2%,i,2%,O=C(CSc1nccn1-c1ccc(Cl)cc1)Nc1cccc2ccccc12,1
-3%,-1%,4%,18%,CCOC(=O)c1c(NC(=O)CCNCc2ccco2)sc2c1CCC2,2
0%,21%,i,6%,COc1ccc(OC)c(/C=N/N(C)c2ccccc2)c1,1
-8%,9%,-10%,2%,CN1c2ccccc2Oc2c(c(=O)n(C)c(=O)n2C)C1c1cccc([N+](=O)[O-])c1 (stereo unspecified),-6
/,0%,/,/,CC(C)c1c(C(=O)Nc2ccccc2)c(-c2ccccc2)c(-c2ccc(F)cc2)n1CC[C@@H](O)C[C@@H](O)CC(=O)O,3
-1%,-5%,0%,12%,CCOC(=O)c1cc(C#N)c(Oc2ccc(F)cc2)nc1-c1ccccc1,-1
1%,1%,-7%,4%,COc1cc(C2C(C#N)=C(N)Oc3cc4c(cc32)OCO4)cc(OC)c1OC (stereo unspecified),4
-4%,2%,-8%,13%,COc1ccc(NC(=O)c2ccc(OC)cc2)cc1,-15
-1%,-3%,i,0%,CC1=C(C(=O)Nc2ccccc2)C(c2ccncc2)n2nnnc2N1 (stereo unspecified),-2
-5%,2%,-7%,-2%,CCOc1ccc(-n2c(/C=C/c3cccc(F)c3)nc3cc(OC)c(OC)cc3c2=O)cc1,-4
5%,-17%,-6%,4%,O=C(Nc1ccc(N2CCOCC2)cc1N1CCOCC1)c1ncoc1-c1cccc(F)c1,1
0%,8%,-5%,-7%,CCc1ccc(C(=O)CSc2ncn[nH]2)cc1,2
2%,2%,0%,3%,CCCCOC(=O)/C=C/c1ccc(OC(=O)OC)c(OC(=O)OC)c1,7
?,-17%,-21%,44%[activator],CCCCC1=CC2=CC(=O)C(C)(OC(=O)CCc3ccccc3)C(=O)C2=CO1 (stereo unspecified),-14
-1%,0%,-2%,9%,COCCn1c(SCC(=O)c2c[nH]c3ccccc23)nnc1-c1ccncc1,-5
-14%,-3%,3%,-13%,Cc1ccccc1N1C(=O)C2CCCN2C1=S (stereo unspecified),-4
-13%,0%,-3%,-5%,COc1ccc(CN2CCCC(C(=O)N3CCCCC3)C2)cc1 (stereo unspecified),-2
3%,5%,-9%,-10%,COc1ccccc1N1C(=O)c2ccc(C(=O)Nc3ccccc3O)cc2C1=O,-4
4%,-4%,i,26%,O=[N+]([O-])c1ccccc1SNc1ccc(Br)cn1,0
?,-16%,-5%,-15%,COc1ccc2cc(-c3nc4ccc(C(=O)O)cc4[nH]3)c(=O)oc2c1,-1
-4%,6%,i,-1%,CCOc1ccc(/C=C/c2nc(C#N)c(N3CCN(CC)CC3)o2)cc1,5

Fetched one by one from the list above (three):
Pin1 inhibitor,GLS inhibitor,Tb PGK inh,ERG Ets-DNA blk,Compound,PI4K2A block
-4%,6%,i,-1%,CCOc1ccc(/C=C/c2nc(C#N)c(N3CCN(CC)CC3)o2)cc1,5
-8%,9%,-10%,2%,CN1c2ccccc2Oc2c(c(=O)n(C)c(=O)n2C)C1c1cccc([N+](=O)[O-])c1 (stereo unspecified),-6
-1%,0%,-2%,9%,COCCn1c(SCC(=O)c2c[nH]c3ccccc23)nnc1-c1ccncc1,-5

(cont.)
Pin1 inhibitor,GLS inhibitor,Tb PGK inh,ERG Ets-DNA blk,Compound,PI4K2A block
?,21%,i,-7%,O=C1C=C(NNC(=O)c2cccnc2)CC(c2ccco2)C1 (stereo unspecified),-4
-15%,-20%,/,7%,COc1cc(Br)cc2cc(C(=O)N3CCN(C(=O)c4ccco4)CC3)c(=O)oc12,4
?,4%,-13%,6%,CCOC(=O)c1sc(NC(=O)CSc2nc3c(cc2C#N)CCCCCC3)c(C#N)c1C,2
-8%,2%,-8%,8%,Fc1cccc(Cl)c1CSc1ncn[nH]1,-4
-6%,6%,-4%,4%,COCCn1c(SCC(=O)Nc2cc(C)on2)nnc1-c1ccccc1,-11
